RecA intein inh: Mtb RecA intein splicing inhibitors, primary screen, biochemical, fluorescence, HTS. Protein RecA (Mycobacterium tuberculosis (strain ATCC 25618 / H37Rv)), P9WHJ3. cell-free RecA intein splicing. inhibition, %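 (about 9 µM by stock and volumes)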. 0.75% of 290,000 active. AID 2221, 2009; in the data active = inhibition above about 30%; inconclusive = no clear call, values can overlap the other calls;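 note: 0% = vehicle wells and 100% = reference inhibitor control wells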
Target sequence (P9WHJ3 whole entry, looked up): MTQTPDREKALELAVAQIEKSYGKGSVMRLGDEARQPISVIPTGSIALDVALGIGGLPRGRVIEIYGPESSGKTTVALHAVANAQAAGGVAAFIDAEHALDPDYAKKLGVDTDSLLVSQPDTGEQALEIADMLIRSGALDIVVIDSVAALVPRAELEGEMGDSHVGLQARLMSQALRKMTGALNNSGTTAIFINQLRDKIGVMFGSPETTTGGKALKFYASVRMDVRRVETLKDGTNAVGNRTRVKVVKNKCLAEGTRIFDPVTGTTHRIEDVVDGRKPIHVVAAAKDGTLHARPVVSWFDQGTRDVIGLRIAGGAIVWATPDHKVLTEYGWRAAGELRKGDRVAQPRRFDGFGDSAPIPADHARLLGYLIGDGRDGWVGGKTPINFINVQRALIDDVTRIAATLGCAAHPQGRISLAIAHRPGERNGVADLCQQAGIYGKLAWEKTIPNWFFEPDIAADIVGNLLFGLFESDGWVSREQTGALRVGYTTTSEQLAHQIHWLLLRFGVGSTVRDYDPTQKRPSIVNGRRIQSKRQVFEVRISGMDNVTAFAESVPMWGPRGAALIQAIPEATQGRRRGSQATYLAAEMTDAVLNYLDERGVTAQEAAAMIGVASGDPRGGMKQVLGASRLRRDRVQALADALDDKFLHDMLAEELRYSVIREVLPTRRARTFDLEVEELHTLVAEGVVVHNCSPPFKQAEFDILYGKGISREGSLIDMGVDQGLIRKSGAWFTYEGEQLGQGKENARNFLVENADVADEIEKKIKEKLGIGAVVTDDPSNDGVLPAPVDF
Arbovirus inh: antivirals against arbovirus infection, primary screen, cell-based, full library, 10K replicate subset; arbovirus infection cell-based antiviral screen; inhibition, % at 10 µM; 0.37% of 200,000 active;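 active = inhibition from about 30%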;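 note: bluetongue infection of BSR cells; cell survival read as ATP light after 72 h; 0% = infected wells without compound and 100% = uninfected wells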
Mtb bLac sens: beta-lactam sensitization of Mtb H37Rv, H37Rv; M. tuberculosis H37Rv growth with meropenem, percent inhibition; hits of this screen are not shown here; inhibition, % at 25 µM; 0.27% of 330,000 active; AID 434955, 2010;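 active = about 74% or more and at least 40 points above the plate without the antibiotic, then above 30% in a dose series; inconclusive = first-round hits that could not be retested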;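 note: growth measured after seven days incubation then overnight dye step; 0% = bacteria only wells and 100% = bacteria with antibiotic; twin plates without the antibiotic show which effects depend on it; some results filed as inactive read as strong as hits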
Mtb H37Rv: M. tuberculosis H37Rv growth inhibitors, H37Rv strain (AID 1626); M. tuberculosis H37Rv growth inhibition; higher % means a stronger effect; inhibition, % at 10 µM; hits with a dose series show IC50 in µM; 0.95% of 220,000 active;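 active = confirmed in a dose series; inconclusive = inhibition above 80% but not taken into the dose series; inactive = below 80% or under 30% at every dose of the series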;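 note: bacteria incubated seven days before Alamar blue readout; 0% = bacteria only wells and 100% = bacteria with antibiotic wells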
YopH PTP inh: YopH tyrosine phosphatase inhibitors, primary screen, biochemical, fluorescence Ex485/Em525 | YopH tyrosine phosphatase [Yersinia enterocolitica] | inhibition, %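 (about 10 µM by stock and volumes)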 | 0.16% of 140,000 active | AID 898, 2007;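 active = inhibition of 50% or more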;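 note: controls were vehicle for no effect and minimum signal wells for full effect; inactives centre near -20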
Arbovirus inh repeat: recorded beside Arbovirus inh, whose call it bears; inhibition, %; measured here: 10K subset replicate screen; many hits read low in the repeat;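 first of two repeat runs on a subset; 0% = infected and 100% = uninfected wells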
The depositor's hits bear a star; ? = inconclusive; nt = no result given.

SMILES	RecA intein inh	Arbovirus inh	Mtb bLac sens	Mtb H37Rv	YopH PTP inh	others
N#Cc1ccccc1OCC(=O)NC(=O)NCc1ccco1	1.3	nt	-7	-6%	nt
CCCc1ccc(OCc2ccc(C(=O)Nc3cccc(C)n3)o2)c(OC)c1	0.7	-4	2	1%	nt
Cc1ccccc1OCCN1C(=O)NC2(CCCc3ccccc32)C1=O (centres undefined)	8.0	11	-1	-3%	-32
Nc1ccc(S(N)(=O)=O)cc1N	-3.0	nt	-7	7%	nt
O=C1CC[C@@H](CN(Cc2ccccc2)Cc2cn[nH]c2-c2cc3ccccc3o2)N1	1.0	-18	4	4%	nt
COCCSc1ccccc1C(=O)NCC1CCCO1 (centres undefined)	0.0	-3	3	2%	-15
COc1ccccc1NC(=O)C(C)OC(=O)CCCN=C1NS(=O)(=O)c2ccccc21 (centres undefined)	5.1	nt	1	nt	nt
COCCCNC(=S)NNC(=O)c1ccc(S(=O)(=O)N2CCC(C)CC2)cc1	1.5	11	-6	-6%	nt
C=CCOn1c(=O)c(-c2ccc(C)cc2)[n+]([O-])c2ccccc21	0.9	nt	-8	nt	nt
COc1ccc(NC(=O)COc2nc(N(C)C)nc(N(C)C)n2)cc1	1.1	-7	1	-5%	13
CN(C)C=NC(=O)/C(C#N)=C1\CCc2ccccc2N1	0.2	17	-6	4%	-36	Arbovirus inh repeat=9
Cc1c(C(=O)N/N=C/c2cccc(O)c2)nnn1-c1nonc1N	-2.1	nt	-7	nt	nt
COc1ccc(NC(=O)CCSc2nc(C)cs2)cc1	11	nt	2	nt	nt
O=C(NC1CCS(=O)(=O)C1)c1cccc(Br)c1 (centres undefined)	0.2	nt	3	nt	nt
COc1ccc(NC(=O)c2ccc3ncsc3c2)cc1	-1.2	nt	2	nt	nt

Fetched one by one from the list above:
SMILES	RecA intein inh	Arbovirus inh	Mtb bLac sens	Mtb H37Rv	YopH PTP inh	others
CCCc1ccc(OCc2ccc(C(=O)Nc3cccc(C)n3)o2)c(OC)c1	0.7	-4	2	1%	nt
COc1ccc(NC(=O)COc2nc(N(C)C)nc(N(C)C)n2)cc1	1.1	-7	1	-5%	13
Cc1ccccc1OCCN1C(=O)NC2(CCCc3ccccc32)C1=O (centres undefined)	8.0	11	-1	-3%	-32
CN(C)C=NC(=O)/C(C#N)=C1\CCc2ccccc2N1	0.2	17	-6	4%	-36	Arbovirus inh repeat=9
COc1ccc(NC(=O)c2ccc3ncsc3c2)cc1	-1.2	nt	2	nt	nt
COc1ccccc1NC(=O)C(C)OC(=O)CCCN=C1NS(=O)(=O)c2ccccc21 (centres undefined)	5.1	nt	1	nt	nt
Nc1ccc(S(N)(=O)=O)cc1N	-3.0	nt	-7	7%	nt

Other compounds:
SMILES	RecA intein inh	Arbovirus inh	Mtb bLac sens	Mtb H37Rv	YopH PTP inh	others
CCOc1ccc2[nH]c(=O)c(CN(CCCO)S(=O)(=O)c3ccc(F)cc3)cc2c1	1.6	nt	2	nt	nt
COc1ccc([C@H]2[C@H](C(C)=O)N3N=Cc4ccccc4C3C23C(=O)OC(C)(C)OC3=O)cc1 (some centres undefined)	-3.6	-19	-9	6%	-31
CC(=O)c1nn(-c2cccc(Br)c2)cc1C(=O)c1cccc2ccccc12	3.3	4	6	-5%	-19
Cc1cccc(NC(=O)C2c3ccccc3Oc3ccccc32)n1	7.1	-13	3	-5%	nt
Cn1nc(C(F)(F)F)c(-c2cccc(C(F)(F)F)c2)c1NC(=O)c1nccnc1C(=O)O	-0.4	nt	-6	7%	nt
O=C(O)CC1(CC(=O)Nc2ccc(F)cc2F)CCCCC1	-0.3	nt	-3	-7%	nt
CCN(CC)C(=O)COc1ccc2oc(C)c(C(=O)OC(C)C)c2c1	2.9	6	-11	-2%	-21	Arbovirus inh repeat=2
CCCNC(=O)c1nc(C)n(-c2cc(Cl)ccc2Cl)n1	-2.0	3	0	-6%	nt
Cc1ccc2nc(Nc3nc(CSc4nnnn4-c4ccccc4)cc(=O)[nH]3)nc(C)c2c1	0.8	-3	1	-4%	1
CCC(C(=O)Nc1ccccc1C(=O)N1CCCC1)N1C(=O)c2ccccc2C1=O (centres undefined)	-0.4	2	-5	-7%	-7
Cn1c(=O)[nH]c(=O)c2c1nc(Sc1ccccc1)n2CCc1ccccc1	-1.3	-5	-3	-3%	-44	Arbovirus inh repeat=-9
COc1cccc(CC(=O)NNC(=O)c2ccc3c(c2)OCO3)c1	1.3	nt	-2	nt	nt
O=C(Nc1cccc(-n2cnnn2)c1)c1ccoc1COc1ccc(Cl)cc1	1.6	nt	-3	nt	nt
CNCCOc1ccccc1-c1ccccc1	-0.7	0	-7	-4%	-17
Cc1ccccc1-c1nc(-c2ccc(NC(=O)c3ccc4c(c3)OCO4)cc2)no1	2.4	-10	-2	2%	5
COc1ccc(CCC(=O)NCc2ccccc2OC)cc1	1.4	nt	-1	nt	nt
O=C(O)Cn1cnc2scc(-c3cccs3)c2c1=O	0.8	nt	4	nt	-36
Cc1ccc(OCC(=O)N2CCN(C(=O)CCC3CCCC3)CC2)cc1	-3.9	1	-11	-5%	6
CC(=O)NS(=O)(=O)c1ccc(N=c2ssc3c2-c2cc(C)ccc2NC3(C)C)cc1	-2.0	-27	-2	-8%	-22
COc1ccc(C(=O)Oc2c(OC)cc(C(=S)N3CCOCC3)cc2OC)cc1OC	-5.5	nt	3	nt	nt
CCN(CC)S(=O)(=O)c1ccc(C(=O)Nc2nnc(C(C)C)s2)cc1	1.6	6	0	2%	-3	Arbovirus inh repeat=5
CC1CCCCN1C(=O)COC(=O)c1n[nH]c2ccccc12 (centres undefined)	-0.3	6	0	-3%	-20
COc1ccc2nc(-n3c(C)ccc3C)sc2c1	-4.4	-2	3	-4%	-5
COc1ccc(/C(O)=C2\C(=O)C(=O)N(c3cc(C)on3)C2c2cccc(OC)c2OC)cc1C (centres undefined)	-1.3	2	-5	-4%	-37
CCCNC(=O)c1onc(CSc2ccc(F)cc2)c1C(=O)NCCC	1.3	nt	-3	6%	nt
O=C(Nc1ccccc1F)C1CCN(C(=O)NC2CCCCC2)CC1	2.5	nt	2	nt	nt
CCOCCCNC(=O)c1c[nH]c2c(CC)cccc2c1=O	-0.2	-8	-1	-4%	nt
Cc1ccc(C(=O)N(C)CC(=O)Nc2cccc(F)c2)cc1S(=O)(=O)N1CCCCC1	0.7	nt	0	nt	nt
O=C(CCCOc1ccc(Cl)cc1Cl)Nc1cccnc1	2.2	-13	1	nt	-11
Cc1ccc(CNC(=O)C2CCCN(c3nc4ccccc4o3)C2)cc1 (centres undefined)	0.8	0	-2	nt	-34	Arbovirus inh repeat=2
CCOc1ccc(Br)cc1C(=O)N/N=C/c1ccccn1	0.1	nt	7	nt	nt
Cc1ccc(-c2nc(S(=O)(=O)c3ccc(C)cc3)c(N3CCOCC3)o2)cc1	0.6	nt	6	nt	nt
COc1ccccc1NC(=O)C(=O)N/N=C(\C)CC(=O)Nc1ccccn1	1.6	-3	6	11%	nt
CC(C)N(C)Cc1cn(C)nc1-c1ccc(Oc2ccccc2)cc1	0.4	nt	-7	nt	nt
O=C1CCC(=O)N(O)CCCCCNC(=O)CCC(=O)N(O)CCCCCNC(=O)CCC(=O)N(O)CCCCCN1	-4.9	nt	-7	-9%	nt
Cc1ccc(/C(N)=N/OC(=O)c2ccc(F)cc2)cc1	1.6	2	-8	9%	-13
Cc1c(/C(Cc2ccccc2)=N/O)c2ccccc2n1C	5.0	0	-3	2%	-26
CCC(C)Sc1cc(-c2nc3ccccn3c2NC2CCCCC2)ccc1OC (centres undefined)	14	nt	100	nt	nt
CC(=O)N1CCc2cc(S(=O)(=O)NC(C)c3ccccc3)ccc21 (centres undefined)	0.4	nt	1	nt	nt
Cc1c(/C=N/n2cnnc2)c2ccccc2n1CCOc1ccc(Cl)cc1	0.7	3	3	-11%	-31	Arbovirus inh repeat=-7
CCNC(=O)N1CCOCC1	0.2	1	6	-5%	1
COc1cc(C=C(c2nc3ccccc3s2)c2nc3ccccc3s2)ccc1O	51*	-42	7	14%	-19
CC(C)C[C@@H](CO)N1CCN(CCc2ccccc2)CCC1=O	0.6	nt	-7	nt	nt
COc1ccc(N2CCN(CC(=O)Nc3ccc(-n4cnnn4)cc3)CC2)cc1	nt	-11	13	-2%	-25
CCOc1ccc(NC(=O)N(C2CCCCC2)C(C)c2ccncc2)cc1 (centres undefined)	1.0	-9	98	69%	-32
CCOC(=O)c1sc(=NC(=O)CCSc2ccccc2)n(C)c1C	1.1	-6	-4	5%	nt
O=[N+]([O-])c1ccc(CN2CCN(c3ccccc3)CC2)o1	-1.0	nt	100	nt	nt
COCc1cc(Sc2ccc(Cl)cc2)nc(C)n1	2.0	0	14	18%	nt
COc1ccc(Cc2nnc(NC(=O)CSc3ccc(C)cc3)s2)cc1OC	4.0	7	-8	6%	-55
CCOC(=O)c1cc(-c2ccc(/C=C3/C(=O)N(c4ccc(C(=O)O)cc4)N=C3C)o2)ccc1Cl	8.1	nt	74	nt	nt
O=C(OCc1nc2ccc(Cl)cc2n1CCO)c1ccc(O)cc1	1.2	6	3	1%	-2
CN[C@H]1CCc2cc(OC)c(OC)c(OC)c2-c2ccc(N(C)CC(OC)OC)c(=O)cc21	-0.8	nt	-8	nt	nt
COC(=O)CNC(=O)COC(=O)/C=C/c1cccs1	1.6	nt	-5	-2%	nt
O=C(/C=C/Nc1ccc(S(=O)(=O)Nc2cnc3ccccc3n2)cc1)c1cccnc1	-0.7	nt	32	-1%	nt
CCC1=Nc2cc(C(=O)N3CCC4(CC3)OCCO4)ccc2Sc2ccccc21	1.2	nt	2	nt	nt
COc1ccc(NC(=S)N2CCC(C(=O)c3ccc(OC)cc3)CC2)cc1	-2.9	nt	0	nt	nt
CC(C)(C)/C(O)=C/c1nc2ccccc2oc1=O	0.2	-13	98	?	nt
C[Si](C)(C)n1ccnc1	3.3	nt	-6	nt	nt
COCc1ccc(C(=O)NC2CCCN(Cc3ccccc3F)C2)o1 (centres undefined)	0.0	nt	-7	nt	nt
CC(=O)Oc1ccc(Oc2ccc(-c3noc(C)n3)cc2)cc1	1.5	-35	2	5%	-7

Structural class: the compounds so far containing bromine
SMILES	RecA intein inh	Arbovirus inh	Mtb bLac sens	Mtb H37Rv	YopH PTP inh	others
O=C(NC1CCS(=O)(=O)C1)c1cccc(Br)c1 (centres undefined)	0.2	nt	3	nt	nt
CC(=O)c1nn(-c2cccc(Br)c2)cc1C(=O)c1cccc2ccccc12	3.3	4	6	-5%	-19
CCOc1ccc(Br)cc1C(=O)N/N=C/c1ccccn1	0.1	nt	7	nt	nt

(listing goes on)
SMILES	RecA intein inh	Arbovirus inh	Mtb bLac sens	Mtb H37Rv	YopH PTP inh	others
Cc1ccc(-n2c(N)cc(=O)nc2SCC(=O)N2CCN(c3ccccc3)CC2)cc1C	2.6	nt	?	nt	nt
CC(=O)c1cccc(NC(=O)C(C)OC(=O)CCCN=C2NS(=O)(=O)c3ccccc32)c1 (centres undefined)	-1.2	nt	-1	nt	nt
O=C(CNc1ccccc1OC(F)F)N1CCc2ccccc21	6.9	4	-1	11%	nt
O=C(CSc1nc(O)c(Cc2ccccc2)c(=O)n1-c1ccccc1)N1CCOCC1	-2.5	2	32	-1%	-35
O=C(COc1ccccc1)NCC(=O)N/N=C/c1cccs1	-6.0	nt	-8	nt	nt
NNC(=O)c1oc2nc(-c3ccccc3)cc(-c3ccccc3)c2c1N	-126	nt	6	nt	nt
Cc1csc(/N=C/c2ccc([N+](=O)[O-])cc2)n1	nt	2	-1	3%	-17
COc1cccc(NC(=O)CCC2CCN(Cc3nccs3)CC2)c1	4.3	nt	-10	nt	nt
COc1ccc(NC(=O)CN(C)CC(=O)Nc2ccc(Cl)cc2[N+](=O)[O-])cc1	4.0	27	0	-11%	nt
Cc1cc(=O)[nH]c(N/N=C/c2cccc(Br)c2)n1	-0.4	nt	-3	nt	nt
CSCCC(NC(=O)COc1ccccc1)C(=O)N1CCCCC1 (centres undefined)	0.5	nt	-2	nt	nt
Nn1c(Cc2ccc(F)cc2)n[nH]c1=S	-1.4	-1	-4	10%	nt
CCn1c(SCC(=O)N/N=C/C=C/c2ccccc2[N+](=O)[O-])nnc1-c1ccccc1	-3.1	4	-4	-6%	-5
CN(C)S(=O)(=O)c1ccc(N2CCCC2)c(C(=O)Nc2ccccc2)c1	1.8	nt	-13	nt	nt
CCS(=O)(=O)c1nc(S(=O)(=O)c2ccc(C)cc2)c(NCCCN(C)C)s1	1.4	2	-1	-3%	nt

Screening data deposited in PubChem BioAssay by several laboratories.

These rows are one share of the data. The share of hits here may be higher or lower than overall.
